From PubChem BioAssay
gsp agonist – agonists of gsp mutant (McCune-Albright syndrome) | gsp mutant cells, cAMP HTRF, 30 min; control for the full effect not named in the record | AID 624287 | 340,000 tested, 0.13% active | Potency, µM (top dose mostly 76.9 µM), for inactives: at the highest dose activation (cAMP increase), actives largely listed as activators; active = well fitted activation curve with a large enough effect; inconclusive = small, poorly fitted or top-dose-only effect, or another doubt; inactive = no such curve, though single readings can be large or run the other way; cell line not stated here;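 also: phosphodiesterase inhibitor Ro 20-1724 added with compounds to block cAMP breakdown; potency is read from the fitted curve at half-maximal effect; nearly all actives have a fitted effect of over 60% in size; about a fifth of the inactives were tested at one dose only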
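Cells in DMEM/10% FBS with G418 were pretreated with compounds in DMSO plus […] (300 uM stock) for 30 min at 37C. cAMP was measured by HTRF (cAMP-d2 plus anti-cAMP antibody-K) after 30 min at room temperature.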
TRPML1 blocker – blocks the human TRPML1 channel; Q9GZU1; TRPML1-inducible cells, Ca2+ dye fluorescence, FDSS; hits give low values; inhibition of EC80 agonist-evoked calcium signal; activity change, negative = inhibition, % (concentration not given with the values); 390,000 tested, 0.02% active; in the data active means activity change below about -50%; inconclusive means about -30% to -50%; inactive means above about -30%;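 also: stimulus is agonist 54-4 at its EC80 concentration; % is scaled to controls: 0 for no effect and ±100 for the full control effect; compound concentration not given in the record; the text of the record puts the active cut at -80%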
Target sequence (Q9GZU1 whole entry, looked up): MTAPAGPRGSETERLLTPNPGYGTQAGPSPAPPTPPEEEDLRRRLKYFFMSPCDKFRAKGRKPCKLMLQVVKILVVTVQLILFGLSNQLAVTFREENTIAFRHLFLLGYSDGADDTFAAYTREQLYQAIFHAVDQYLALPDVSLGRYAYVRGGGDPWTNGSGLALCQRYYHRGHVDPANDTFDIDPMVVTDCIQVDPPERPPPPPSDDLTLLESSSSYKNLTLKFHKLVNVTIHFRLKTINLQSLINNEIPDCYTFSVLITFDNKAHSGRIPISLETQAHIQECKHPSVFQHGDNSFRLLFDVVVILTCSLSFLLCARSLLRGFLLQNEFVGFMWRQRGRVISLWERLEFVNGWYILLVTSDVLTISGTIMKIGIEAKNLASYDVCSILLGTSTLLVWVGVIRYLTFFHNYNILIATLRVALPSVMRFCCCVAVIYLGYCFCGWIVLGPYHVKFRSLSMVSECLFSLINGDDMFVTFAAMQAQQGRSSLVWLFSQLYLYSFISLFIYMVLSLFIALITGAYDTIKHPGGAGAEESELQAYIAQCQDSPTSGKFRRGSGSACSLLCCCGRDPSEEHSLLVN
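Calcium fluorescence in TRPML1-DL cells induced overnight with Tet: a 110 s read after compound pin addition, then a 110 s antagonist read after challenge with 54-4 at 4 uM final (EC80).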
TRPML1 agonist – human mucolipin-1 channel agonism; TRPML1-expressing cells, Ca2+ dye fluorescence, FDSS; host cell line not named in the record; reference of the full effect not given here; activation, % (concentration not given with the values); 410,000 tested, 0.12% active; AID 624414; in the data active = activation above about 50%; inconclusive = about 30% to 50%; inactive = below about 30%; also: 0% is about no effect; the text of the record puts the active cut at 80%
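Tetracycline-induced TRPML1-DL cells are seeded and incubated overnight before loading with a no-wash Ca2+ dye and quencher. Agonist activity is taken from the 110 s fluorescence read following compound pin-transfer on an FDSS, before EC80 54-4 challenge.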
Menin MLL FP FL – menin-MLL binding inhibition, fluorescein peptide | Fluorescence polarization, fluorescein-MLL peptide displacement from menin | 290,000 tested, under 10 active | FP activity change, % at 61.4 µM; inconclusive = falling polarisation curve, or a change in total fluorescence; inactive = total fluorescence flat and polarisation flat or rising; no compound was filed as active; the % refers to the polarisation; negative = inhibition;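 also: % of control where 0% means no effect; inhibitors lower the polarisation; unlabelled MLL peptide was the positive control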
gsp antagonist – antagonists of gsp mutant (McCune-Albright syndrome); gsp-mutant cells, cAMP HTRF, 30 min; control for the full effect not named in the record; Potency, µM (series often up to 76.9 µM), without a hit: at the top dose activity change, negative = inhibition, most hits filed as inhibitors; 340,000 tested, 0.4% active; AID 624288; active = falling curve of any shape with a large fitted effect; inconclusive = falling curve, mostly with a smaller effect; inactive = flat or rising curve; cell line not stated here;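 also: intracellular cAMP measured with PDE inhibitor Ro 20-1724 present during compound exposure; potency is read from the fitted curve at half-maximal effect; % is scaled to controls: 0 for no effect and ±100 for the full control effect; nearly all actives have a fitted effect of over 65% in size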
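HTRF cAMP measurement after 30 min RT detection following 30 min, 37C compound treatment alongside […] (added as 300 uM solution) in G418-selected cells seeded at 2000/well and grown 16–24 h.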
ClpP mod – qHTS Assay for Activators of ClpP; Potency, µM (series often up to 57.5 µM), without a hit: at the highest dose activity change, negative = active; purified B. subtilis ClpP, FRET peptide cleavage, 20 min; AID 651965, 2013; 340,000 tested, 1.9% active; active = well fitted falling curve with a large enough effect; inconclusive = small, poorly fitted or top-dose-only effect; inactive = no such curve, though single readings can be large or run the other way; also: potency is read from the fitted curve at half-maximal effect; the source files actives as falling curves though it sought activators and does not explain the sign; nearly all actives have a fitted effect of over 65% in size; many hits overshoot -100%
Target sequence (P80244 whole entry, looked up): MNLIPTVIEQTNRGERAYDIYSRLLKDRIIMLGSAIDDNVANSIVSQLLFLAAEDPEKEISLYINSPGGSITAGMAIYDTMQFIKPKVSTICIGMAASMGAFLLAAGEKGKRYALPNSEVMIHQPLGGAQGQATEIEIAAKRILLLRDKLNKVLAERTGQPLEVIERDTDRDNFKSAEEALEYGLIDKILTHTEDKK
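ClpP 10 microg/mL final, pH 8 Tris/KCl buffer with BSA, glycerol, Tween-20; compound pinned in; FRET-FV substrate; RT 20 min; Ex320/Em430; ΔFRET vs ADEP 5.8 microM, DMSO, no enzyme.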
* hit, by the source's call; ? = inconclusive; nt = not tested or not shown; [ ] = another dose, or the depositor's remark.

cpd	structure	gsp agonist	TRPML1 blocker	TRPML1 agonist	Menin MLL FP FL	gsp antagonist	ClpP mod
1	O=C(COc1ccc(F)cc1)Nc1ccc(S(=O)(=O)N(Cc2ccccc2)c2ccccc2)cc1	nt	25	1.7	nt	nt	0.7%
2	CCNc1nnc(SCC(=O)N2c3ccccc3NC(=O)CC2C)s1 (stereo unspecified)	3%	12	0.3	nt	7%	-1.3%
3	CC1(C)N=C(N)N=C(N)N1c1ccc(OCCCOc2ccccc2)c(Cl)c1	-1%	-4	-0.1	4.2	-3%	-2.0%
4	O=C([C@@H]1CCCN1C(=O)c1cccs1)N1CCN(S(=O)(=O)c2cccc(F)c2)CC1	-3%	?	1.0	nt	-8%	0.9%
5	COc1cccc(CN2CCN(Cc3cc(OC)c(OC)c(OC)c3)CC2)c1OC	?	7	-0.2	-2.1	6%	nt
6	CCN(CC)C(=O)CSc1nnc(-n2nc(C)cc2C)c2ccccc12	20%	5	0.8	0.7	-11%	-0.2%
7	COc1ccccc1C(=O)NC(=O)CSc1nnc(SC)s1	?	22	1.4	nt	-11%	-1.0%
8	O=C1CC(/C=C/c2ccncc2)=Nc2ccccc2N1	-15%	2	-0.6	3.2	-6%	-1.1%
9	COC(=O)c1ccc2c(c1)N(Cc1ccccc1F)C(=O)c1ccccc1S2=O (stereo unspecified)	2%	-2	-0.2	-0.8	5%	-1.5%
10	Cc1ccc(C)n1-c1nnc(N2CCC(C(=O)NCCCN3CC(C)CC(C)C3)CC2)s1 (stereo unspecified)	3%	-9	-0.4	nt	6%	7.1%
11	COc1cnc(SCC(=O)O)[nH]c1=O	-33%[inhibitor]	-1	0.4	-0.2	4%	-3.9%
12	CCC1CN(C(=O)Nc2cccc3c2CCCC3)c2cc(C)ccc2O1 (stereo unspecified)	nt	30	1.8	nt	nt	-3.4%
13	CN(c1ccccc1)S(=O)(=O)c1cccc(NC(=O)CSc2nnc(N)s2)c1	0%	-1	-0.4	4.9	-29%	4.1%
14	CNC(=S)NN=C(C)CCCC(C)=NNC(=S)NC	?	10	0.7	nt	6%	6.0%
15	Cc1ccc2cc3cc(C(=O)NCCCN4CC(C)CC(C)C4)oc3nc2c1 (stereo unspecified)	-30%	51	-0.4	-0.5	19%	3.6%
16	O=C(CS(=O)(=O)Cc1ccccc1)N1CCc2ccccc21	13%	14	-0.4	-0.7	9%	0.3%
17	Cc1sc2nc(SCC(=O)c3cc(C)n(CC4CCCO4)c3C)n(C(C)C)c(=O)c2c1C (stereo unspecified)	-18%	-8	-0.7	6.7	3%	-1.5%
18	CN1CCC(=C(c2ccccc2)c2ccc(Br)cc2)CC1	14%	-7	0.4	nt	?	-1.8%
19	COc1ccc(CC(=O)Nc2ccc(/C(C)=N\NC(=O)c3ccc(Br)o3)cc2)cc1	13%[15.4 µM]	18	-0.2	-3.1	-11%	-2.4%
20	CCN(CC)CCOC(=O)c1ccccc1Br	18%	5	0.6	-3.5	12%	nt

The closing two compounds of the part above come first, to join the parts:
cpd	structure	gsp agonist	TRPML1 blocker	TRPML1 agonist	Menin MLL FP FL	gsp antagonist	ClpP mod
19	COc1ccc(CC(=O)Nc2ccc(/C(C)=N\NC(=O)c3ccc(Br)o3)cc2)cc1	13%[15.4 µM]	18	-0.2	-3.1	-11%	-2.4%
20	CCN(CC)CCOC(=O)c1ccccc1Br	18%	5	0.6	-3.5	12%	nt
21	Cc1ccc(CNC(=O)C2C3C=CC4(CN(Cc5cccnc5)C(=O)C24)O3)cc1 (stereo unspecified)	5%	-3	0.3	0.6	5%	-0.8%
22	Cc1ccc(-c2cc(C(=O)NCCN3CCOCC3)c3ccccc3n2)o1	?	4	4.7	2.8	11%	3.6%
23	Nc1nc(-c2ccccc2)c(CC(=O)O)s1	-39%[inhibitor]	-9	0.5	nt	nt	-2.7%
24	Cc1ccnc2nc(C(=O)N3CCN(S(=O)(=O)c4ccccc4)CC3)nn12	1%	-9	2.1	3.1	3%	-1.5%
25	O=C(NCC1CC1)c1cc([N+](=O)[O-])cc([N+](=O)[O-])c1	20%[15.4 µM]	16	-0.9	5.8	-20%	0.4%
26	CC(=O)Nc1ccc(NC(=O)C2Cc3ccccc3N2C(=O)c2ccccc2)cc1 (stereo unspecified)	nt	-12	0.8	nt	nt	9.8%
27	O=C(c1cc(=O)c2cc(Cl)ccc2o1)N1CCN(Cc2ccccc2)CC1	-1%	29	2.1	-2.2	-17%	0.0%
28	c1ccc2nc(N3CCOCC3)cnc2c1	?	12	-0.6	2.3	4%	-0.9%
29	CCN1C[C@@H]2[C@@H]3C(=O)N(C)C(=O)[C@@H]3[C@](C)(C1=O)N2C(=O)c1ccc(F)cc1	6%	24	-0.3	nt	1%	2.5%
30	O=C(O)C1Cc2[nH]cnc2C(c2cccc([N+](=O)[O-])c2)N1 (stereo unspecified)	4%	-6	0.5	0.1	9%	0.9%
31	CC1CCN(C(=O)COc2ccc(Nc3ccccc3)cc2)CC1	-15%[15.4 µM]	19	-0.2	-2.1	-5%	-2.2%
32	Cc1ccc(-c2[nH]ncc2/C=N/n2c(C)nc3ccccc3c2=O)cc1	-2%[15.4 µM]	-3	4.6	-0.3	17%	nt
33	O=C(O)/C(=C\c1ccccc1OC(F)F)Sc1nnc(-c2ccc(F)cc2)o1	-41%[inhibitor]	7	0.4	-0.1	-4%	nt
34	O=C(OCc1ccccc1)N1CCC2CC1c1cc(-c3ccccc3)ccc12 (stereo unspecified)	nt	-6	1.8	nt	-11%	-1.4%
35	O=C(NCc1ccco1)Nc1ccc(OC(F)(F)F)cc1	-50%[inhibitor]	10	1.7	2.2	3%	0.9%
36	COc1cccc(C2=CC(=O)CC(C)(C)C2)c1	-16%	10	0.4	nt	-2%	-15%
37	COc1ccccc1-n1nc(C)c(-c2ccccc2)c1N	13%	17	0.0	-5.0	3%	-0.5%
38	CC1(C)NC(=O)N(CC(=O)OCC(=O)N2CCN(S(=O)(=O)c3ccccc3)CC2)C1=O	-5%	14	-0.3	nt	18%	-29%
39	Brc1ccc(-c2nnc(-c3cccnc3)c3conc23)cc1	-1%	21	1.1	nt	11%	1.2%
40	COc1ccc([C@H]2CC(=O)C=C(c3cc(C)ccc3F)C2)cc1	-13%	1	0.8	nt	-8%	1.1%

Gathered by group, the compounds so far containing a Cl atom (two)
cpd	structure	gsp agonist	TRPML1 blocker	TRPML1 agonist	Menin MLL FP FL	gsp antagonist	ClpP mod
3	CC1(C)N=C(N)N=C(N)N1c1ccc(OCCCOc2ccccc2)c(Cl)c1	-1%	-4	-0.1	4.2	-3%	-2.0%
27	O=C(c1cc(=O)c2cc(Cl)ccc2o1)N1CCN(Cc2ccccc2)CC1	-1%	29	2.1	-2.2	-17%	0.0%

The results go on.
cpd	structure	gsp agonist	TRPML1 blocker	TRPML1 agonist	Menin MLL FP FL	gsp antagonist	ClpP mod
41	O=S(=O)(c1ccccc1)c1nc(Nc2cccc(O)c2)sc1Cl	-3%	?	0.9	2.6	8%	0.8%
42	Cc1cc(C)c(OCCN(C)C)c(Cl)c1	-1%[15.4 µM]	4	-0.7	-1.0	12%	2.9%
43	O=C(COc1ccc2oc3c(c2c1)CCCC3)Nc1ccc(Cl)cc1	nt	-4	2.2	nt	nt	1.0%
44	COc1ccc(C2C(C#N)=C(N)Oc3cccc(O)c32)cc1 (stereo unspecified)	-16%	50	3.3	18	-11%	1.9%
45	Cc1ccccc1CSCCNC(=O)CCSc1ccccc1	-25%	5	2.6	0.6	-19%	-5.6%
46	CN[C@H](C)C(=O)NC[C@H]1O[C@@H](n2cnc3c(N)ncnc32)[C@H](O)[C@@H]1O	nt	4	0.3	nt	7%	-1.2%
47	O=C(C1CC(=O)N(c2ccc3c(c2)OCCO3)C1)N1CCN(Cc2ccccc2F)CC1 (stereo unspecified)	21%	-3	-0.7	nt	-10%	1.7%
48	O=C(/C=C/c1ccc([N+](=O)[O-])cc1)NCc1ccc2c(c1)OCO2	14%	19	3.1	-1.9	6%	2.3%
49	CCc1ccccc1NC(=O)C(=O)c1cc(C)n(-c2ccccc2F)c1C	nt	3	3.1	nt	nt	0.4%
50	COc1ccc(CCN2CC34C=CC(O3)C(C(=O)NCc3ccccc3Cl)C4C2=O)cc1OC (stereo unspecified)	-17%	3	1.6	2.5	8%	-1.6%
51	CC(C)CCNc1ncnc2c1cnn2Cc1ccccc1Cl	-100%[inhibitor]	nt	nt	-1.8	-4%	-0.2%
52	COc1ccc2[nH]c(O)c(N=O)c2c1	-16%	11	-0.2	6.8	-5%	-1.4%
53	COc1ccc(CCNC(=O)CSc2n[nH]c(-c3ccccc3Cl)n2)cc1OC	nt	-18	-0.7	nt	nt	-3.0%
54	COc1ccccc1N1CCN(c2ncnc3sc(C(=O)NCC4CCCO4)c(C)c23)CC1 (stereo unspecified)	-20%	8	-1.3	nt	-38%	-2.7%
55	COc1cc([N+](=O)[O-])cc2cc(C(=O)N3CCN=C3c3ccccc3)c(=O)oc12	8%	-10	-0.5	3.4	-2%	0.3%
56	CCn1c(C)c(C(C)=O)c(N2CCC(C(N)=O)CC2)nc1=S	-52%[inhibitor]	11	0.7	2.2	4%	-1.4%
57	Cc1cc(C)c(OCC(=O)Nc2cccc(NC(=O)c3ccco3)c2)c(Br)c1	-45%[inhibitor]	28	6.1	1.4	-10%	-24%
58	CC(=O)c1c(C)n(-c2ccc(C)cc2)c2ccc(OC(=O)COc3ccccc3)cc12	nt	25	1.0	nt	nt	0.1%
59	Clc1nc2c(ccc3ccccc32)[nH]1	-2%	-3	-0.7	-0.1	4%	-16%
60	S=C(c1ccc(-c2ccc(Br)cc2)o1)N1CCOCC1	-16%[15.4 µM]	-1	0.1	2.0	-17%	nt

The list goes on.
cpd	structure	gsp agonist	TRPML1 blocker	TRPML1 agonist	Menin MLL FP FL	gsp antagonist	ClpP mod
61	Cc1ccc(CNC(=O)COC(=O)c2cccnc2Cl)cc1	-29%	-17	0.0	nt	11%	nt
62	CCn1c(SCC(=O)Nc2ccccc2)nc2c1c(=O)n(C)c(=O)n2C	3%	0	-0.3	5.3	9%	0.5%
63	Cc1ccc(NC(=O)n2ccc(-c3ccc(-n4ccnc4)cc3)n2)cc1	-9%[15.4 µM]	-14	-0.6	3.4	-6%	nt
64	O=C(Oc1ccc2ccc(=O)oc2c1)c1ccc([N+](=O)[O-])cc1	-27%	-15	-0.2	1.9	11%	nt
65	COc1cccc(CNS(=O)(=O)c2ccc(S(=O)(=O)N3CCCC3)cc2)c1	-6%[15.4 µM]	20	0.1	-2.0	6%	nt
66	COc1ccc(N2CCN(S(=O)(=O)c3ccc(OC)c(C(=O)N4CCCC4)c3)CC2)cc1	2%[15.4 µM]	-10	-0.6	3.9	?	nt
67	COc1ccc(Cl)cc1-c1nc(N)nc(NC2CCCCC2)n1	5%	-19	-1.6	1.3	-11%	?
68	Cc1sc2c(c1C)c(=O)n(Cc1ccccc1)c(=O)n2CC(=O)N(C)c1ccccc1	nt	20	1.1	nt	nt	1.3%
69	Cn1nc(-c2ccc(C(=O)N3CCN(CCO)CC3)cc2)c2ccccc2c1=O	13%	-10	-0.5	2.7	7%	-1.9%
